ClpP mod = qHTS Assay for Activators of ClpP | purified B. subtilis ClpP, FRET peptide cleavage, 20 min | Potency, µM (titrated, usually from 57.5 µM), without a hit: at the top dose activity change, negative = active | 340,000 compounds, 1.9% hits | AID 651965, 2013; active = well fitted falling curve with a large enough effect; inconclusive = small, poorly fitted or top-dose-only effect; inactive = no such curve, though single readings can be large or run the other way; further: potency means the concentration at half of the fitted maximal effect; the source files actives as falling curves though it sought activators and does not explain the sign; nearly all actives have a fitted effect of over 65% in size; many hits overshoot -100%
Target sequence (P80244 whole entry, looked up): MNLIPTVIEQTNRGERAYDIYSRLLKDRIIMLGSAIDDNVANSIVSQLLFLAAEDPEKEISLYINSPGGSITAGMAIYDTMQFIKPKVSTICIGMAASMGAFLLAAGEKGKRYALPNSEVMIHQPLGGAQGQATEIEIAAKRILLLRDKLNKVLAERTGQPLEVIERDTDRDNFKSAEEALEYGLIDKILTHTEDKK
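FRET quenching reversal measured ClpP activation: 10 microg/mL B. subtilis ClpP at pH 8 with the FRET-FV decapeptide, read at 430 nm after 320 nm excitation. The 20-min minus 0-min signal was scaled between DMSO/no-enzyme wells and ADEP (5.8 microM final).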
TRPV1 PAM = potentiators of human vanilloid receptor 1 (TRPV1) | Q8NER1 | AID 540277 | 320,000 compounds, 0.02% hits | potentiation, % at 8.33 µM | TRPV1-expressing cells, Fluo-8 calcium influx, capsaicin EC20 potentiation; host cell line not named in the record; control for the full effect not named in the record; active means potentiation above 80%; inconclusive means 30% to 80%; inactive means below 30%; further: 0% is about no effect
Target sequence (Q8NER1 whole entry, looked up): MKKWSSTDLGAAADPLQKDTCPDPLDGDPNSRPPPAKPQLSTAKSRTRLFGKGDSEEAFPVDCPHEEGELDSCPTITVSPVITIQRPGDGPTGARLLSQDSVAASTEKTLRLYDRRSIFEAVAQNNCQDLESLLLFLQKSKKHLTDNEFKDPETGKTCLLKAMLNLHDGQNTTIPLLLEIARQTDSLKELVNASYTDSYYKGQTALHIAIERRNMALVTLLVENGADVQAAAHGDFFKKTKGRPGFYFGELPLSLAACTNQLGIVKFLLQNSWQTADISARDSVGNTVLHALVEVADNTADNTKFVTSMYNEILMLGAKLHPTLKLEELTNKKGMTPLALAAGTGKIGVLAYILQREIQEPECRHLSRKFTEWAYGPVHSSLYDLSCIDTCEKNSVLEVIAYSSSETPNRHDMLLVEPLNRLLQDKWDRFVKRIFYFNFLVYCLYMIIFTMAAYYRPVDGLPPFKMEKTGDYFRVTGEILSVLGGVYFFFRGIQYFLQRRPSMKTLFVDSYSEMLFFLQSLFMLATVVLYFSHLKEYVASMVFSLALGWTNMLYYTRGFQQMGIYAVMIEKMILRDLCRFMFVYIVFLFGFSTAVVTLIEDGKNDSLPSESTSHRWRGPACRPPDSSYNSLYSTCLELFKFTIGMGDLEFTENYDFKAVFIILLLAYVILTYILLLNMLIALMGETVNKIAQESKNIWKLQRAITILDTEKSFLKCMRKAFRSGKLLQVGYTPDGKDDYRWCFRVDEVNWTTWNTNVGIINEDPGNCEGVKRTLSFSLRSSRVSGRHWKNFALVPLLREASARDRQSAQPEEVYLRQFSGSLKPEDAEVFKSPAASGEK
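TRPV1-expressing cells were cultured overnight at 35.5C and loaded with Fluo-8 calcium dye for 40 to 90 min at room temperature. After a 10 s baseline, compound was added and calcium influx was read kinetically for 3 min (ex 480/em 520 nm).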
Sfp inh = inhibitors of Bacillus subtilis Sfp phosphopantetheinyl transferase. Q9F4F7. Biochemical Sfp PPTase activity, qHTS. Potency, µM, for the others: max response, negative = inhibition, hits mostly inhibitors. 310,000 compounds, 3.5% hits. AID 1490; active means well fitted inhibition curve with a large enough effect; inconclusive means small, poorly fitted or top-dose-only effect, or another doubt; inactive means no such curve, though single readings can be large or run the other way;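 further: the enzyme is Sfp with the accession as filed and its product quenches rhodamine fluorescence; potency means the concentration at half of the fitted maximal effect; 0% = enzyme reaction without inhibitor and -100% = no enzyme wells; top concentration of the series not given in the record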
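Fluorescence-quenching assay with 15 nM Sfp, 5 uM rhodamine-CoA and 12.5 uM BHQ-2-labelled ybbR peptide in pH 7.6 Hepes/MgCl2 buffer. Enzyme was pre-incubated with compound for 15 min at room temperature. Rate was taken from the 30-min fluorescence change (525/598 nm).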
Menin-MLL FL inh = displaces fluorescein MLL peptide from human menin; FP activity change, % at 61.4 µM; Fluorescence polarization, fluorescein-MLL peptide displacement from menin; 290,000 tested, under 10 active; inconclusive = falling polarisation curve, or a change in total fluorescence; inactive = total fluorescence flat and polarisation flat or rising; no compound was filed as active; the % refers to the polarisation; negative = inhibition;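 further: % of control where 0% means no effect; inhibitors lower the polarisation; unlabelled MLL peptide was the positive control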
PINK1 modulator = modulators of PINK1 expression. Potency, µM (highest dose often 76.6 µM), for the others: at the highest dose activation (PINK1 increase), usual class: activators. 410,000 compounds, 0.2% hits. PINK1 immunofluorescence, high-content cytometry, 24 h; active = well fitted activation curve with a large enough effect; inconclusive = small, poorly fitted or top-dose-only effect; inactive = flat fitted curve, though single readings scatter; cell line not stated here;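 further: potency means the concentration at half of the fitted maximal effect; % of control where 0% means no effect; nearly all actives have a fitted effect of over 65% in size; a mitochondrial uncoupler was the plate control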
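Measures PINK1 amount and localization on or inside mitochondria by immunofluorescence. Stable cells get compounds at 5 concentrations for 24 hours before fixation and staining; CCCP controls included.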
TRPML1 blocker = blocks the human TRPML1 channel; Q9GZU1; TRPML1-inducible cells, Ca2+ dye fluorescence, FDSS; hits give low values; inhibition of EC80 agonist-evoked calcium signal; activity change, negative = inhibition, % (test concentration not listed); 390,000 compounds, 0.02% hits; AID 624415; in the data active means activity change below about -50%; inconclusive means about -30% to -50%; inactive means above about -30%;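 further: stimulus is agonist 54-4 at its EC80 concentration; on the % scale 0 is the no-effect control and ±100 the full control effect; compound concentration not given in the record; the text of the record puts the active cut at -80%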
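Tet-induced TRPML1-DL cells loaded with Ca8 no-wash calcium dye were read kinetically on FDSS. Compound addition was followed by EC80 agonist 54-4 (4 uM final); inhibition was read over 110 s.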
TRPML1 ag = agonists of human TRPML1 channel. activation, % (no concentration beside the values). TRPML1-expressing cells, Ca2+ dye fluorescence, FDSS; host cell line not named in the record; reference of the full effect not given here. Q9GZU1. AID 624414. 410,000 compounds, 0.12% hits; in the data active = activation above about 50%; inconclusive = about 30% to 50%; inactive = below about 30%; further: 0% is about no effect; the text of the record puts the active cut at 80%
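Tet-induced TRPML1-DL cells, 1,500 per well, cultured overnight, were loaded with a no-wash Ca2+ dye for 45–90 min. Calcium fluorescence was recorded on the FDSS for 110 s after compound addition, before the EC80 agonist (4 uM 54-4) was added.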
Active calls of the source: *; & = joins results of further samples; [ ] = another dose, or the depositor's remark. The list is partial. The share of hits here may be higher or lower than overall.

COc1cc(OC)cc(C(=O)Nc2ccc(Br)cc2C(=O)c2ccccc2)c1 was read as ClpP mod -0.8%, TRPV1 PAM 7.9, Sfp inh 35.5µM*, Menin-MLL FL inh 0.0, PINK1 modulator 8.1%, TRPML1 blocker 0.2 and TRPML1 ag 1.3.
Screening O=[N+]([O-])c1ccc(N2CCNCC2)cc1NC1CC1 returned TRPV1 PAM -17.6, Sfp inh -0.8% and Menin-MLL FL inh 2.8.
Screening CCCC(C)(COC(N)=O)COC(=O)NC(C)C (stereo not drawn) returned ClpP mod 2.3%, TRPV1 PAM 2.7, Sfp inh 14.6%&11.3%&-7.0%, Menin-MLL FL inh 1.8&2.0&-2.3&-2.0, PINK1 modulator 1.8%, TRPML1 blocker 3.2 and TRPML1 ag -0.7.
Screening Cc1ccc(OCC(=O)N2CCN(Cc3ccc(F)cc3)CC2)cc1 returned ClpP mod 0.7%, PINK1 modulator -0.7%, TRPML1 blocker -8.8 and TRPML1 ag -0.6.
`CNC(=O)Oc1c(C)[nH]ccc1=O` gave ClpP mod -0.6%, PINK1 modulator 0.9%, TRPML1 blocker 1.4 and TRPML1 ag 0.0.
O=[N+]([O-])c1ccc(NCCO)c2ncccc12 was read as ClpP mod -0.5%, TRPV1 PAM -2.1, Sfp inh 0.8%, Menin-MLL FL inh -0.2, PINK1 modulator -0.5%, TRPML1 blocker 4.9 and TRPML1 ag -0.2.
For N#CC(C#N)=Cc1ccc(-c2ccccc2F)o1 the results were ClpP mod -0.6%, TRPV1 PAM -13.9, Sfp inh -6.0%, Menin-MLL FL inh inconclusive, PINK1 modulator 9.9%, TRPML1 blocker 15.3 and TRPML1 ag 1.4.
O=c1c2ccccc2nc(CNCc2ccco2)n1-c1ccc(F)cc1 was read as ClpP mod -1.7%, TRPV1 PAM 4.9, Sfp inh 6.1%, Menin-MLL FL inh 2.8, PINK1 modulator -0.1%, TRPML1 blocker -13.3 and TRPML1 ag -0.2.
For c1ccc(-c2cc(-c3ccccc3)[n+](-c3ccccc3)c(-c3ccccc3)c2)cc1 the results were TRPV1 PAM -8.7, Sfp inh -5.3%, Menin-MLL FL inh -5.6, PINK1 modulator inconclusive, TRPML1 blocker 13.3 and TRPML1 ag 26.0.
For O=C(CCc1ccccc1)N1Cc2cc(-c3cccc(F)c3)ccc2-n2nncc2C1 the results were ClpP mod -22.8%, PINK1 modulator -0.4% and TRPML1 ag -0.9.
For COc1ccc(N2C(=O)/C(=C/c3cc(C)n(-c4ccc(C)cn4)c3C)C(=O)NC2=S)c(OC)c1 the results were ClpP mod -1.4%, TRPV1 PAM -0.8, Sfp inh 35.5µM*, Menin-MLL FL inh 9.5, PINK1 modulator 5.1%, TRPML1 blocker -3.7 and TRPML1 ag 0.5.
For O=c1[nH]c(=S)[nH]c(O)c1N=Nc1cc(S(=O)(=O)Nc2ccc(Cl)cc2)ccc1Cl the results were ClpP mod -1.5%, TRPV1 PAM 5.3, PINK1 modulator 3.9%, TRPML1 blocker -2.7 and TRPML1 ag -0.6.
For Cc1ccc(C2N(c3cc(C)on3)C(=O)C3CCCN32)cc1 (stereo not drawn) the results were ClpP mod -0.9%, TRPV1 PAM -5.0, Sfp inh -9.6%, Menin-MLL FL inh -0.3, PINK1 modulator 1.1%, TRPML1 blocker -8.7 and TRPML1 ag 4.3.
`CNC(=O)ON(C(=O)NC)C1N(C)C(=S)SC1(C)C` (stereo not drawn) gave ClpP mod 1.0%, TRPV1 PAM 5.9, Sfp inh 16.3%, Menin-MLL FL inh 5.6, PINK1 modulator 3.2%[38.3 µM], TRPML1 blocker -7.9 and TRPML1 ag -0.5.
Screening CC(=O)O[C@H]1CCC2C3CC[C@H]4[C@@H](O)[C@H](O)CC[C@]4(C)C3CC[C@@]21C (stereo partly drawn) returned PINK1 modulator 2.6%, TRPML1 blocker -8.2 and TRPML1 ag -0.6.
CCC(=O)OC1(c2ccccc2)CCN(C)CC1C (stereo not drawn) was read as TRPV1 PAM 9.5, Sfp inh -6.5%, Menin-MLL FL inh -1.4, PINK1 modulator 0.7%, TRPML1 blocker 19.0 and TRPML1 ag -0.2.
CCOc1cccc(=NC2CCCCC2)c2c(C)[nH]c(C)c12 was read as TRPV1 PAM -0.6, Sfp inh inconclusive, Menin-MLL FL inh inconclusive, PINK1 modulator inconclusive, TRPML1 blocker 28.6 and TRPML1 ag 1.8.
For Clc1cccc(N2CCNCC2)n1 the results were TRPV1 PAM -1.2, Sfp inh 9.8%, Menin-MLL FL inh -0.1, PINK1 modulator 0.0%, TRPML1 blocker 6.9 and TRPML1 ag -0.7.
Screening O=c1[nH]c2ccccc2n1C1CCN(C(c2ccccc2OC(F)(F)F)c2nnnn2Cc2ccccc2)CC1 (stereo not drawn) returned ClpP mod 0.4%, PINK1 modulator -0.4%, TRPML1 blocker 0.3 and TRPML1 ag 1.1.
CC(=O)OC1(c2ccccc2)CC(C(C)(C)C)CN(C(C)(C)C)C1 (stereo not drawn) was read as ClpP mod 1.1%, TRPV1 PAM -18.5, Sfp inh -5.1%, Menin-MLL FL inh 0.1, PINK1 modulator -0.1%, TRPML1 blocker 2.8 and TRPML1 ag 0.3.
For O=C1NCN(c2ccccc2)C12CCN(C(c1ccccc1OC(F)(F)F)c1nnnn1Cc1ccccc1)CC2 (stereo not drawn) the results were ClpP mod -0.6%, PINK1 modulator -0.3% and TRPML1 ag -0.2.
`Cc1ccc(NP(=O)(Oc2ccccc2F)Oc2ccccc2F)cc1` gave ClpP mod 1.2%, TRPV1 PAM -7.0, Sfp inh -0.9%, Menin-MLL FL inh 6.0, PINK1 modulator -1.9%[38.3 µM], TRPML1 blocker 5.4 and TRPML1 ag 0.9.
COC(=O)C1=C(c2cccc(Cl)c2)C[C@@H]2CC[C@H]1N2C(=O)N1CCCC1 was read as ClpP mod 1.1%, TRPV1 PAM -16.7, PINK1 modulator -0.6%, TRPML1 blocker 7.8 and TRPML1 ag 0.6.
Screening O=C(CN1CCCCC1)c1ccccc1Cl returned ClpP mod -2.5%, TRPV1 PAM -1.9, Sfp inh -17.8%, Menin-MLL FL inh 9.2, PINK1 modulator -3.7%, TRPML1 blocker 2.0 and TRPML1 ag -0.4.
O=[N+]([O-])c1cc(F)c(N2CCCCCC2)cc1N1CCNCC1 was read as ClpP mod 18.3%, TRPV1 PAM 0.4, Sfp inh 3.1%, Menin-MLL FL inh -3.1, PINK1 modulator -2.2%, TRPML1 blocker -2.7 and TRPML1 ag 0.6.
For CCOc1ccc(CN(CCc2ccc3c(c2)OCO3)Cc2ccc(OC)c(Br)c2)cc1 the results were ClpP mod -0.5%, PINK1 modulator 1.7%, TRPML1 blocker -12.3 and TRPML1 ag -0.3.
`N#C/C(=C\c1ccc(O)cc1)C(=O)O` (tested in a mixture with another compound) gave ClpP mod -6.9%, PINK1 modulator 2.0%, TRPML1 blocker 1.7 and TRPML1 ag 0.3.
O=C1CN=C(c2ccc(F)cc2)c2oc3ccccc3c2N1 was read as ClpP mod -0.6%, TRPV1 PAM 6.7, Sfp inh 13.0%, Menin-MLL FL inh 0.9, PINK1 modulator 3.4%, TRPML1 blocker -20.6 and TRPML1 ag 1.4.
For COc1ccc2c(c1OC)C(=O)OC2C1c2cc3c(cc2CCN1C)OCO3 (stereo not drawn) the results were ClpP mod 0.0%, TRPV1 PAM 8.6, Sfp inh 12.7%&17.3%&4.2%&-6.8%&-9.1%, Menin-MLL FL inh 2.7&-4.7&1.5&8.2&0.7&2.6, PINK1 modulator 0.2%, TRPML1 blocker 14.0 and TRPML1 ag 0.2.
For CC(C)N1CCN(Cc2cccc3c2OCO3)CC1CCO (stereo not drawn) the results were ClpP mod -0.8%, TRPV1 PAM -3.0, Sfp inh 16.6%, Menin-MLL FL inh 0.3, PINK1 modulator -2.3%, TRPML1 blocker -1.9 and TRPML1 ag 0.9.
Screening CC1(C)Cc2c(c(N3CCOCC3)nc3sc4c(NCc5ccccc5)nnnc4c23)CS1 returned ClpP mod -8.6%, TRPV1 PAM 1.9, Sfp inh 0.8%, Menin-MLL FL inh 12.9, PINK1 modulator inconclusive, TRPML1 blocker -4.0 and TRPML1 ag 0.4.
Screening CCc1ccc(CN2CCN(Cc3cc(Br)ccc3O)CC2)cc1 returned TRPV1 PAM -15.5, Sfp inh inconclusive, Menin-MLL FL inh 6.3, PINK1 modulator 39.8µM*, TRPML1 blocker 3.4 and TRPML1 ag -0.6.
CCC(c1nnnn1C(C)(C)C)N1CCC2(CC1)C(=O)NCN2c1ccccc1 (stereo not drawn) was read as ClpP mod 0.2%, PINK1 modulator 0.7% and TRPML1 ag -0.3.
`O=C1C2CCN(CC2)C1Cc1ccccc1O` (stereo not drawn) gave ClpP mod -0.1%, TRPV1 PAM 5.2, Sfp inh 17.9%, Menin-MLL FL inh 0.2, PINK1 modulator -0.5%, TRPML1 blocker 0.1 and TRPML1 ag -0.3.
For CC(C)C[C@@H]1CN(CCCC[C@H]2CNC(=O)C(=O)N2CCC2CCCCC2)C(=O)C(=O)N1CCC1CCCCC1 the results were ClpP mod 2.3%, PINK1 modulator -1.4% and TRPML1 ag 3.0.
For COc1ccccc1CCNCc1cccc(C(F)(F)F)c1 the results were ClpP mod -1.1%, TRPV1 PAM 4.8, Sfp inh 12.6%, Menin-MLL FL inh 1.3, PINK1 modulator 0.1%, TRPML1 blocker 6.8 and TRPML1 ag 0.0.
Screening CC1=CC(=C2C(=O)NC(=S)NC2=O)C=C(C(F)(F)F)N1C returned ClpP mod -6.6%, TRPV1 PAM 4.0, Sfp inh -4.3%, Menin-MLL FL inh -0.3, PINK1 modulator -1.5%, TRPML1 blocker -9.0 and TRPML1 ag 0.1.
For CCc1nnc(NS(=O)(=O)c2ccc(N=Cc3c(O)n(-c4ccc(Cl)cc4)c(=O)[nH]c3=O)cc2)s1 the results were TRPV1 PAM inconclusive, Sfp inh 13.5%, Menin-MLL FL inh 19.3, PINK1 modulator 0.7%, TRPML1 blocker 11.7 and TRPML1 ag 0.0.
`O=C1CC(=O)N(c2ccc3c(c2)OCO3)C(=O)N1` gave ClpP mod -0.2%, TRPV1 PAM -3.3, Sfp inh -12.5%, Menin-MLL FL inh 10.8, PINK1 modulator -1.1%, TRPML1 blocker -2.4 and TRPML1 ag -1.0.

Assay outcomes as filed in PubChem.
